Compound activity (PubChem)
Ecoli growth: E. coli growth inhibition | Escherichia coli growth, OD600, 23 h; hits give low values | OD600 absorbance (test concentration not listed) | 330,000 compounds, 0.21% hits | AID 1053175;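 active means OD600 absorbance below the run mean of sample wells minus 3.6 SD, in any replicate, cut at about 0.56 in these data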;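 further: stock transfer was 300 nL into about 60 µL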
B2AR ag: activates human beta-2 adrenergic receptor causing internalization | P07550 | Am2.2-beta2AR cells, FAP receptor internalization, flow cytometry; reference of the scale not given here | response, % (no concentration beside the values) | 340,000 compounds, 0.43% hits | AID 504454;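 active means response above a set limit, near 3 SD of response in nonfluorescent compounds, cut at about 42% in these data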;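 further: stock transfer was 100 nL into about 11 µL; a reference agonist was the positive control; negative values mostly stem from fluorescent compounds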
Ecoli rRNA inh: selective bacterial rRNA inhibition in E. coli | E. coli WT GFP vs humanized-ribosome RFP mutants, fluorescence, 24 h; hits give low values; DMSO median 0, no signal -100 | GFP signal change (wild-type ribosome), % (concentration not given with the values) | 350,000 compounds, 1.6% hits;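 active means significant combined selectivity score with lowered wild-type GFP, culture density cut under 30%, mutant RFP and density less affected; inactive means any of these conditions unmet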; further: one replicate is shown; some compounds called inactive have numbers as strong as hits
UCH37 DUB inh: inhibitors of human deubiquitinating enzyme UCH37; purified proteasome/UCH37, Ub-AMC cleavage fluorescence; 330,000 compounds, 0.33% hits; inhibition, % (test concentration not listed); AID 588478; Q9Y5K5;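 active means mean of two replicates above 20%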;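 further: 0% = compound-free wells with enzyme and 100% = wells lacking proteasome; stock transfer was 100 nL into about 20 µL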
Target sequence (Q9Y5K5 whole entry, looked up): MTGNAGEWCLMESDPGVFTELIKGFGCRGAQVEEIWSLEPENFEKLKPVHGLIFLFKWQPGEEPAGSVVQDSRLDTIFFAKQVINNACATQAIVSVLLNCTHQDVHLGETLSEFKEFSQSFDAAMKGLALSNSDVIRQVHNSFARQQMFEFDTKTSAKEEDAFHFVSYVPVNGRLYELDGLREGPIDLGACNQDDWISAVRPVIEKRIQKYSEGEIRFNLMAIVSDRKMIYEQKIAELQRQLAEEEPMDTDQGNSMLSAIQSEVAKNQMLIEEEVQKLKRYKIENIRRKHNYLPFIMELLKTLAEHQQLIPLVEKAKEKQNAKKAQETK
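Reagent: Ub-AMC substrate; assay system: Proteasome-associated human UCH37 deubiquitinase; controls: no-proteasome and no-compound wells; read-out: % inhibition of Ub-AMC cleavage fluorescence; timing: 30 min preincubation with enzyme, 25 min cleavage at room temperature; signal: AMC fluorescence from Ub-AMC cleavage, excitation 355 nm, emission 460 nm; buffer or medium: Tris-HCl pH 7.4 plus ovalbumin, ATP-MgCl2, DTT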
HNF4A DNA FP: change in binding of human HNF4 alpha to DNA; P41235; HNF4a-FITC DNA binding, fluorescence polarization, 1 h; activity change, % at 10 µM; 360,000 compounds, 0.3% hits; AID 1224865; in the data active means activity change above about 30%, passing the limit was not always enough;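 further: controls were the assay level and a saturating level of protein; the project sought stronger binding though the title names inhibitors; some compounds called inactive have numbers as strong as hits; positive values seem to mean higher polarization but the record does not say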
Target sequence (P41235 whole entry, looked up): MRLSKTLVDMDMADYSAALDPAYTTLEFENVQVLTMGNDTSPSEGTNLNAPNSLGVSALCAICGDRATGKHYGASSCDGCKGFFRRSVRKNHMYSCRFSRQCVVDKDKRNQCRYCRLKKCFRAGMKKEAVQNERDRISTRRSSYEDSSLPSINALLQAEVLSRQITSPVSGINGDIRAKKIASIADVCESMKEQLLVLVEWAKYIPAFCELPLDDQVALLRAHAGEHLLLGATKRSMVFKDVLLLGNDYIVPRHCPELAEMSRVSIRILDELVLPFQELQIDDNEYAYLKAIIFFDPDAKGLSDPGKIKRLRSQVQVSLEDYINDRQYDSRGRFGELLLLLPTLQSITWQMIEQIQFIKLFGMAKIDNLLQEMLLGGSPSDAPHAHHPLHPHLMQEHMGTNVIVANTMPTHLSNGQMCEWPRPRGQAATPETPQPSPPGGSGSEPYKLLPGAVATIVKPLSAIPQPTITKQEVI
ALR H2O2 inh: inhibitors of human sulfhydryl oxidase ALR. purified ALR, DTT oxidation, H2O2 HRP-luminol luminescence. inhibition, % (concentration not given with the values). 290,000 compounds, 3.8% hits. AID 485317;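 active means mean and each replicate at 75% or more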;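 further: stock transfer was 7.5 nL into about 7.5 µL; 0% = neutral wells and 100% = wells with inactivated enzyme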
Target sequence (P55789 whole entry, looked up): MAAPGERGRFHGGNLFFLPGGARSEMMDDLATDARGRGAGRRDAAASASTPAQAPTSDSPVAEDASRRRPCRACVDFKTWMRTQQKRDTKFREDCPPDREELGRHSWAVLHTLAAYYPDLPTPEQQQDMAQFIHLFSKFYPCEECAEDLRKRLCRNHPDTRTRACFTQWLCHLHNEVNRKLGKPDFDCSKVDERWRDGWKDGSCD
FGF22 binding: FGF22 (human) thermal shift binding; Q9HCT0; recombinant FGF22 thermal shift, SYPRO orange fluorescence; percent of sucrose octasulfate shift, DMSO zero; 340,000 compounds, 1.5% hits; calls only at 9.99 µM; AID 651658;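 active means melting point raised past a set limit in the mean and every replicate; three in four hits are not shown here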
Ecoli rRNA inh OD600: second read-out of Ecoli rRNA inh, no call of its own (marks repeat the call); OD600 change, %; measured here: OD600 growth;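 optical density of the mix in the first replicate; 0 = DMSO median and -100 = no signal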
Ecoli rRNA inh RFP: recorded beside Ecoli rRNA inh, whose call it bears; RFP signal change, %; measured here: RFP humanized mutant strains;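 first replicate; 0 = DMSO median and -100 = no signal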
* marks the source's active call; other numbers are inactive results; i = inactive; . = no result given; & = joins results of further samples. Only part of the results is shown (hit frequency here may not be typical).

SMILES	Ecoli growth	B2AR ag	Ecoli rRNA inh	Ecoli rRNA inh OD600	Ecoli rRNA inh RFP	UCH37 DUB inh	HNF4A DNA FP	ALR H2O2 inh	FGF22 binding
Cc1cc(C)c2nc(SCC(=O)Nc3ccc(S(=O)(=O)N4CCCC4)cc3)c(C)cc2c1	0.74	3	.	.	.	1.0	-1.1	3	.
COc1ccc(-c2nnc(SCC(=O)N(C)C3CCS(=O)(=O)C3)n2CC(C)C)cc1 (stereo unspecified)	.	.	11	-2	4.8	.	2.6	.	i
Cc1ccc(S(=O)(=O)N(C)C[C@@H]2OCc3cnnn3CCCC(=O)N([C@@H](C)CO)C[C@@H]2C)cc1	.	.	4&1	5&1	9.8&-1.9	.	-4.7	.	i
Cc1ccc(-c2nnn(CC(=O)N(CC(=O)NC3CCCC3)c3cnc4ccccc4c3)n2)o1	0.72	-6	.	.	.	0.1	1.8	-16	.
Cc1cc(C)c(C)c(S(=O)(=O)N2CCCN(C)CC2)c1C	0.69	3	7	-1	-0.9	2.0	0.8	3	i
Cc1cccc(NC(=S)N2CCCN(c3ncccc3[N+](=O)[O-])CC2)c1	0.67	4	-6	-8	1.2	5.9	-0.5	.	i
CC(C)(C)c1ccc(OCCC(=O)OCC(=O)Nc2ccc(N3CCOCC3)cc2)cc1	0.72	-6	10	2	-0.5	-0.8	-2.4	.	i
O=C(CCNC(=O)c1ccc([N+](=O)[O-])cc1)N/N=C/c1ccc(F)cc1	.	-2	9	8	-1.4	.	1.3	-1	i
Cc1nnc(NC(=O)C2CCN(S(=O)(=O)c3ccc(Cl)cc3)CC2)s1	0.64	-3	12	8	-0.2	3.7	-0.4	27	i
Cc1cc(N2CCN(c3ccc(F)cc3)CC2)n2ncnc2n1	0.63	-1	.	.	.	6.4	2.8	-2	i
Cc1cccc(NC(=S)c2nc3ccccc3s2)c1	0.7	-4	.	.	.	3.0	-0.6	.	.
CC(NC(=O)c1ccco1)C(c1cccs1)N1CCN(c2ccccc2F)CC1 (stereo unspecified)	0.63	-31	-27	-26	-12	2.9	-1.9	5	i
CC(=O)Cn1cnc2c(cnn2-c2ccccc2)c1=O	0.67	4	6	3	0.6	-0.9	1.0	-65	i
CCNC(=O)O/N=C(\C)c1sc(-c2ccc(Cl)cc2)nc1C	.	-3	.	.	.	.	-1.9	20	.
O=C(C1CCN(S(=O)(=O)c2ccc(Cl)s2)CC1)N1CCN(c2ccccc2)CC1	.	6	-21	-29	-2.9	.	-0.9	.	.
Cc1ccc(CNS(=O)(=O)/C=C/c2ccc3c(c2)OCO3)cc1	0.72	-1	.	.	.	0.7	-2.6	0	.
CCOc1ccccc1C1CC(=O)NC2=C1C(=O)CC(C)(C)C2 (stereo unspecified)	0.78	5	.	.	.	0.0	0.6	-6	.
CN(C)c1ccc(CN2CCC(C(N)=O)CC2)cc1	0.64	-3	7	9	2.1	-1.0	-0.2	32	i
CCOC(=O)C1CCN(C(=O)CSc2cc(=O)n(CC)c3ccccc23)CC1	0.61	6	-3	-2	-1.7	-2.1	1.4	-4	.
COC(=O)[C@]1(Cc2ccccc2)N[C@H](CN(C)C(=O)Nc2ccc(F)cc2)[C@@H]2C(=O)N(C)C(=O)[C@@H]21	0.67	3	14	14	2.0	-0.5	2.0	-7	i
COc1ccc(-c2cc(C(F)(F)F)n3nc(C(=O)N4CCN(C(=O)c5ccco5)CC4)cc3n2)cc1	0.73	1	-6	4	5.3	-72	-0.6	1	i
O=C(CC(CC(=O)c1ccc(Cl)cc1)c1ccccc1C(=O)O)c1ccc(Cl)cc1	0.6	11	-47	-60	-7.3	3.2	2.1	11	i
Cc1ccc(/C=N/n2c(-c3cccnc3)n[nH]c2=S)o1	.	3	4	4	-1.7	.	4.2	31	i
O=C(CCCCCCCCN1C(=O)c2ccccc2C1=O)N1CCOCC1	0.65	2	-9	-15	-0.3	3.6	-1.6	-8	i
CC12CN3CC(C)(CN(C1)C3c1ccc(Cl)cc1Cl)C2O (stereo unspecified)	0.62	-18	.	.	.	1.5	0.3	2	.
O=C(Nc1cccc(F)c1)c1ccc2c(c1)OCCO2	0.59	-1	-5	-4	-5.7	1.8	0.5	4	i
COc1cccc(CC(=O)OCc2csc(CC(=O)Nc3ccccc3C)n2)c1	0.66	-1	-6	-4	-1.2	5.4	0.1	0	i
Cc1ccc(/C=N/N=C2/NC(=O)CS2)o1	.	-4	14	8	0.9	.	1.4	-6	i
CC(OC(=O)c1ccc(Cl)c(S(=O)(=O)Nc2ccc(F)cc2)c1)C(=O)NC(N)=O (stereo unspecified)	0.67	1	-26*	-0.4*	1.9*	1.7	4.2	.	i
Cc1c(C(=O)NCc2ccccc2C(F)(F)F)sc(=O)n1Cc1ccc(Cl)c(Cl)c1	.	.	1	2	-5.6	.	3.6	.	i
CCCCCCSc1cccc(-c2nc3ccc(C)cn3c2NC2CCCCC2)c1	0.76	9	5	0	-4.1	-269	0.2	.	i
COc1ccc(C2CC(C(F)(F)F)n3nc(C(=O)O)c(Cl)c3N2)cc1OC (stereo unspecified)	0.69	5	.	.	.	7.6	-4.8	1	.
CCCCc1ccc(S(=O)(=O)NC(=O)C2(C)CCN2C(=O)c2c(C)noc2C)cc1 (stereo unspecified)	.	.	3	1	-1.7	.	3.5	.	i
Cc1ccc(/C=N/n2c(-c3ccc(Cl)cc3)n[nH]c2=S)s1	.	2	14	11	3.9	.	2.3	3	.
CCOC(=O)c1sc(N)c(C#N)c1CSc1nc2ccc(OCC)cc2[nH]1	0.67	-1	.	.	.	0.4	5.4	6	.
CC(C)CC(=O)N1CCN(Cc2ccc3c(c2)OCO3)CC1	0.66	5	.	.	.	4.4	4.0	-1	.
Cc1cccc(C2(c3cccc(C)c3)CC2C(=O)Nc2ccc([N+](=O)[O-])cc2O)c1 (stereo unspecified)	0.76	26	.	.	.	8.6	-0.7	-7	.
CC1S/C(=N\N=C\c2cccc([N+](=O)[O-])c2)N(C(C)(C)C)C1=O (stereo unspecified)	.	-2	10	10	2.2	.	2.0	.	i
COc1cc(NC(=O)Cc2cccs2)ccc1-n1cnnn1	0.73	-10	.	.	.	2.1	1.3	-12	.
COc1cc(C)nc(Oc2ccc(OCCOc3ccc(C)cc3)nn2)n1	0.67	-17	.	.	.	3.5	1.1	-3	.
O=C(OC(c1ccc(NS(=O)(=O)c2ccccc2)cc1)(C(F)(F)F)C(F)(F)F)c1ccccc1	0.69	-45	-27	-58	1.3	-0.4	-1.5	-14	i
O=C(NCc1cccnc1)c1cc(Sc2cccc(Cl)c2)nc2ccccc12	0.65	-6	-24	-42	7.3	1.8	3.2	-6	i
CC(C)(C)c1cc(S(=O)(=O)CCc2ccncc2)cc(C(C)(C)C)c1F	0.68	20	0	-3	-1.5	5.8	-0.7	0	i
Cc1ccc(NC(=O)Cn2nnc(C(=O)NCc3ccc4c(c3)OCO4)c2N)cc1	0.64	2	9	23	-1.9	2.3	1.4	3	i
Cn1c(CN2CCCCC2)nc2cc(NS(=O)(=O)c3ccc(F)cc3)ccc21	0.69	-1	14	8	2.3	4.4	-2.8	-24	.

Overlap with the part before: 4 entries; new compounds follow.
SMILES	Ecoli growth	B2AR ag	Ecoli rRNA inh	Ecoli rRNA inh OD600	Ecoli rRNA inh RFP	UCH37 DUB inh	HNF4A DNA FP	ALR H2O2 inh	FGF22 binding
O=C(NCc1cccnc1)c1cc(Sc2cccc(Cl)c2)nc2ccccc12	0.65	-6	-24	-42	7.3	1.8	3.2	-6	i
CC(C)(C)c1cc(S(=O)(=O)CCc2ccncc2)cc(C(C)(C)C)c1F	0.68	20	0	-3	-1.5	5.8	-0.7	0	i
Cc1ccc(NC(=O)Cn2nnc(C(=O)NCc3ccc4c(c3)OCO4)c2N)cc1	0.64	2	9	23	-1.9	2.3	1.4	3	i
Cn1c(CN2CCCCC2)nc2cc(NS(=O)(=O)c3ccc(F)cc3)ccc21	0.69	-1	14	8	2.3	4.4	-2.8	-24	.
CC(=O)C(C)Oc1ccc2c3c(c(=O)oc2c1C)CCCC3 (stereo unspecified)	0.67	-8	.	.	.	-37	0.5	-14	.
Cc1ccccc1C(=O)NC1CCCCCCC1	0.68	-2	-1	3	6.7	1.8	-1.6	-10	i
COC(=O)Cc1nnc(NC(=O)c2ccccc2)s1	0.75	-2	.	.	.	3.3	-2.0	-5	.
COCCN(C(=O)CCC(=O)Nc1cc(C)on1)C(C(=O)NC(C)(C)C)c1ccc(OC)cc1 (stereo unspecified)	0.66	8	-4	4	-0.4	1.9	1.3	.	i
Cc1nc2ccccc2c(=O)[nH]1	0.69	0	.	.	.	3.5	2.3	-4	.
CCOC(=O)c1cc(CC)sc1NC(=O)c1cc([N+](=O)[O-])ccc1N1CCOCC1	0.73	10	.	.	.	1.6	1.0	-5	.
COc1ccc(CC(=O)Nc2cccc(SC)c2)cc1OC	0.72	3	-8	-11	1.2	2.8	3.6	.	.
COc1ccc(/C(C)=N/NC(=O)c2nnn(-c3nonc3N)c2-c2cccs2)cc1OC	.	3	0	8	-4.9	.	-5.2	-4	i
NC(=O)CC(NC(=O)Cc1cccc2ccccc12)c1ccc(NC2CCCC2)c([N+](=O)[O-])c1 (stereo unspecified)	0.64	-5	10	9	1.7	0.5	7.2	.	i
C=CCc1ccc(OCCn2cncn2)c(OC)c1	0.69	-8	18	1	3.3	8.8	1.6	-11	i
CCOC(=O)c1c(-c2ccccc2)csc1NC(=O)c1cc(S(=O)(=O)N2CCOCC2)ccc1C	0.72	-1	.	.	.	-5.7	4.0	-7	.
Cn1c2c(c(=O)n(C)c1=O)C1c3ccccc3OCC1C(C)(C)O2 (stereo unspecified)	0.74	7	6	1	0.6	2.9	2.4	.	i
CN1C(=O)C(O)(CC(=O)c2ccccc2O)c2cc(Br)ccc21 (stereo unspecified)	0.7	-3	-1	3	-1.3	10	-0.7	51	i
O=C(Nc1ccc(S(=O)(=O)Nc2ccccn2)cc1)c1ccc(Cl)cc1Cl	0.67	2	-7	-12	-0.3	-3.1	-1.5	2	i
COc1cccc(C2/C(=C(\O)c3ccc4c(c3)OCCO4)C(=O)C(=O)N2CCN(C)C)c1 (stereo unspecified)	0.73	3	.	.	.	3.3	4.1	-1	.
Cc1ccc(S(=O)(=O)N(C)C)cc1NC(=O)CN1c2cccc3cccc(c23)S1(=O)=O	0.64	11	3	1	2.6	-25	0.9	-17	i
COc1cccc(OCC(O)CNC(=O)c2oc3c(C)c(C)ccc3c2C)c1 (stereo unspecified)	0.63	5	-27	-45	15	0.3	4.7	-4	i
CC(/C=C/c1ccccc1)=N\NC(=O)c1ccncc1	.	8	11	15	14	.	-2.0	2	i
CC(=O)Nc1ccc(-c2cn3cc(C)ccc3n2)cc1	0.68	-8	.	.	.	-28	0.3	-9	.
CN1CCN(c2oc(-c3ccccc3)nc2S(=O)(=O)c2ccccc2)CC1	0.65	-4	6	10	0.3	0.0	-2.6	-2	i
CCOc1ccc(CCNC(=O)COC(=O)/C=C/c2ccc(OCC#N)c(OC)c2)cc1OCC	0.66	9	4	22	8.9	-2.6	-0.8	-8	i
COc1cccc(N2CCN(C3CC(=O)N(c4ccc(Cl)c(Cl)c4)C3=O)CC2)c1 (stereo unspecified)	0.72	-5	.	.	.	2.9	-2.6	2	.
